Screening results: PubChem, ICCB-Longwood Screening Facility, Harvard Medical School
VACV E9 pol inh = vaccinia E9 polymerase processive synthesis inhibitors, primary screen, biochemical, absorbance; Vaccinia virus DNA polymerase (E9) processive complex; in vitro processive DNA synthesis, absorbance read-out; stronger effect = lower value; some inactives read as strong as hits; normalized absorbance, % (no concentration beside the values); 0.94% of 46,000 active;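 active = replicate mean up to 90% and picked by the depositor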;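 note: 100% = median of the test wells of a plate; 100 nL library stock went into each well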
Numbers without * were called inactive; & = joins results of further samples.

smiles	VACV E9 pol inh
COC(=O)c1c[nH]n2c(NC3CCCCC3)c(-c3ccc(C)cc3)nc12	109
CC(Oc1ccc(Cl)cc1Cl)c1ccnc2ncnn12 (stereo unspecified)	112
CCSc1nnc(CSc2ncccn2)n1-c1cccc(C(F)(F)F)c1	106
CCC(C)n1c(N)c(C#N)c2nc3ccccc3nc21 (stereo unspecified)	97
CC(c1ccco1)N(C(=O)c1cccnc1Cl)c1ccccn1 (stereo unspecified)	97
C=CCn1c(SCc2ccc(Cl)cc2)nc2cc(C(=O)NCc3ccco3)ccc2c1=O	96
Cc1nc2ccccc2c(=O)n1/N=C/c1ccc2ncccc2c1	100
CC(C)NC(=O)n1cc(F)c(=O)[nH]c1=O	100
c1ccc(-c2csc(N3CCOCC3)n2)cc1	109
NC(=O)C1CCN(S(=O)(=O)Cc2ccc(Cl)cc2)CC1	97
O=S(=O)(c1ccccc1)c1cc2ccccc2oc1=Nc1ccccc1	105
O=C(CC1OCCN(Cc2ccccc2)C1=O)Nc1ccc2c(c1)OCCO2 (stereo unspecified)	110
O=C(Nc1nccs1)c1cc(=O)c2ccccc2o1	101
COCc1cc(C)nc2sc(C(=O)N3CCN(c4ccccc4)CC3)c(N)c12	88
Cn1c(CCCNC(=O)c2ccccc2)nc2ccccc21	100
O=C(Nc1nc(=S)ss1)c1ccccc1Cl	69*
NC(=O)c1ccc(NC(=O)COC(=O)c2ccccc2I)cc1	104
Cc1n[nH]c(C)c1C12CC3CC(CC(C3)C1)C2	93
CC12CC(NC(=O)N1c1ccc(C(=O)NCc3ccccc3)cc1)c1ccccc1O2 (stereo unspecified)	100
CCc1cccc(NC(=O)c2cc3cc4ccc(C)cc4nc3s2)c1	102
O=C(Nc1ccccc1SCC(O)Cn1ccc2ccccc21)c1ccc(Cl)cc1 (stereo unspecified)	107
c1ccc(-c2nn3c(-c4ccccc4)nnc3s2)cc1	95
O=C(Nc1nnc(C2CC2)s1)C(c1ccccc1)c1ccccc1	96
CC(C)NC(=O)Cn1nc(Cc2ccncc2)c2ccccc2c1=O	93
CCN(C(=O)CSC1=NCCS1)c1ccccc1	102
CS(=O)(=O)Nc1ccc2c(c1)C(=O)NC2=O	100
Cn1c(-c2ccccn2)[n+](C)c2ccccc21	98
CCCc1cc(NCCc2ccccc2)n2c(nc3ccccc32)c1C#N	100
CC1CCC(C(C)C)C(NC(=S)Nc2cccc(F)c2)C1 (stereo unspecified)	96
CCCNC1C2CC3CC(C2)CC1C3 (stereo unspecified)	105
O=C(O)CCCSc1nc2ccccc2[nH]1	103
COc1cc(C(=O)N=C2C(C)=CC(=O)C=C2C)cc(OC)c1OC	100
Cc1ccc(-n2nnc3c(sc4nc(C)cc(C)c43)c2=O)cc1	96
CCOC(=O)C1C(=O)C=C(N2CCOCC2)CC1c1cccc(OC)c1 (stereo unspecified)	98
COc1ccc(C(=O)CNC2=NCCC2)cc1	96
O=C1/C(=C/c2ccc(Cl)cc2)COC/C1=C\c1ccc(Cl)cc1	100
Cc1ccc2c(cnn2C(=O)CCCC(=O)O)c1	96
CCOc1nc(Cl)nc(N2CCCCC2C)n1 (stereo unspecified)	101
COc1ccc(CC(=O)Nc2sccc2C#N)cc1	95
CCOC(=O)c1ccc(NC2CCCc3c2n(C)c2ccc(C)cc32)cc1 (stereo unspecified)	90

Fetched by compound from above:
smiles	VACV E9 pol inh
O=C(O)CCCSc1nc2ccccc2[nH]1	103
COc1ccc(C(=O)CNC2=NCCC2)cc1	96
COc1cc(C(=O)N=C2C(C)=CC(=O)C=C2C)cc(OC)c1OC	100
COc1ccc(CC(=O)Nc2sccc2C#N)cc1	95
Cc1ccc2c(cnn2C(=O)CCCC(=O)O)c1	96
CCOC(=O)c1ccc(NC2CCCc3c2n(C)c2ccc(C)cc32)cc1 (stereo unspecified)	90
Cc1ccc(-n2nnc3c(sc4nc(C)cc(C)c43)c2=O)cc1	96
CCOc1nc(Cl)nc(N2CCCCC2C)n1 (stereo unspecified)	101
CCOC(=O)C1C(=O)C=C(N2CCOCC2)CC1c1cccc(OC)c1 (stereo unspecified)	98
O=C1/C(=C/c2ccc(Cl)cc2)COC/C1=C\c1ccc(Cl)cc1	100

(further entries)
smiles	VACV E9 pol inh
COc1ccc(CCN=Cc2ccc(Oc3nccc(C(F)(F)F)n3)cc2)cc1OC	95
CC(C)(C)c1ccc(OCc2ncc(S(=O)(=O)c3ccccc3)c(N)n2)cc1	100
O=C1CSC(=S)N1/N=C/c1cc(Br)cc(Br)c1O	81*
CC1SCC(=O)N(CC(=O)NCc2ccccc2)C1=O (stereo unspecified)	110
Cc1cc(C2(O)CSc3nc4cc(C(F)(F)F)ccc4n32)ccc1Cl (stereo unspecified)	110
CCN(Cc1ccccc1)C(=O)C(C)Oc1ccccc1 (stereo unspecified)	97
Cc1c(C(=O)Nc2ccccc2)cnn1-c1ccccc1	67
CN1C(=O)/C(=C/c2cn(Cc3ccccc3)c3ccccc23)c2ccccc21	91
CCc1ccc2nc(N3CCC(C(=O)NCC4COc5ccccc5O4)CC3)sc2c1 (stereo unspecified)	89
COC(=O)c1ccc2c(=O)nc3n(c2c1)Cc1ccccc1-3	101
CCc1n[nH]c(=O)n1Nc1ccccc1	98
Cc1ccc(C(=O)CCc2ccc(N)cc2)cc1	92
CS(=O)(=O)/C(C#N)=C/Nc1cnccn1	105
c1nc(NCCCN2CCCCC2)c2[nH]cnc2n1	99
CCNC(=O)N1c2ccc(CC)cc2C(C)=CC1(C)C	100
O=C(CSc1nc2ccccc2n1-c1ccccc1)N1CCCC1	104
O=C(O)COc1ccc(/C=C2\SC(=O)N(Cc3ccc(F)cc3)C2=O)cc1	100
CCOC(=O)c1nc[nH]c1C	83
Cc1ccc(C)c(NC(=O)CSc2nnc(NC(=O)c3ccccc3F)s2)c1	101
CCOc1nc(Nc2ccc(I)cc2C)nc(NC2CCCCC2)n1	109
O=C(CCCn1c(=O)c2cccn2c2ccccc21)NCc1cccnc1	96
CN1CCN(Cc2c(O)ccc3c(=O)c(-c4ccc(Cl)cc4Cl)c(C(F)(F)F)oc23)CC1	100
COc1ccccc1Nc1nc(C2(C)CCC(=O)O2)cs1 (stereo unspecified)	100
Cc1cc(Br)c(S(=O)(=O)C(C)(C)C)c(Br)c1	95
CN1C(=O)C(Cc2ccccc2)(Cc2ccccc2)c2ccccc21	96
CN(C)c1n[nH]c(=O)[nH]c1=O	100
COc1cccc(C(=O)NC(Cc2ccccc2)C(=O)O)c1 (stereo unspecified)	86
O=C(Nc1cccc(Cl)c1)c1cc(S(=O)(=O)N2CCCCCC2)ccc1F	99
Cc1ccc(S(=O)(=O)n2nc(-n3c(C)ccc3C)c3c(F)cccc32)c2ccccc12	102
CC12C(=O)N(CCC(=O)O)C(=O)C1C1C=CC2C1 (stereo unspecified)	99
O=C(CN1C(=O)C2C3C=CC(C3)C2C1=O)Nc1ccc2ncccc2c1 (stereo unspecified)	112
Fc1ccc(-c2ccc(C=Nc3ccc(F)c(F)c3)[nH]2)cc1	96
CCCCn1c(CSc2ccccn2)cn(-c2nnc(C(C)(C)C)s2)c1=O	105
CC(C)N1C(=O)/C(=C2/C(=O)N(CC(=O)O)c3ccc(Br)cc32)SC1=S	123
Cc1nc(-c2cc(C#N)c(Oc3ccc(C(F)(F)F)cc3)nc2C)cs1	99
CCOc1cc(C2N3CCc4ccccc4C3CN2S(=O)(=O)c2ccc(C)cc2)ccc1OC (stereo unspecified)	101
N#Cc1cn(Cc2ccc(F)cc2)c2ccccc12	93
O=C1c2ccccc2C(=O)c2c1oc(-c1ccccc1)c2C(=O)c1ccccc1	100
N#CCC(=O)Nc1ccc(Oc2ccccc2)cc1	100
CS/C(=C(\C#N)C(=O)C1CC1)N1CCOCC1	96
COc1nccnc1NS(=O)(=O)c1ccc(NCc2cc(Br)ccc2O)cc1	90
O=C(NC1CCCC1)c1ccc(CS(=O)(=O)c2cccc(C(F)(F)F)c2)o1	103
Cc1ccc(S(=O)(=O)N(CC(=O)Nc2ccc3c(c2)OCCO3)C2CCCCC2)cc1	100
O=S1(=O)CCN(N2CCCCC2)CC1	100
CCOC(=O)Cc1ccc(NC(=O)N2CCOc3ccccc32)cc1	99
CNCCc1ccccn1	100
Cc1cccc(NC(=O)CSc2cn(CCNC(=O)c3ccc(F)cc3)c3ccccc23)c1C	104
C=CCN1CC(c2nc3ccccc3n2Cc2ccc(F)cc2)CC1=O (stereo unspecified)	96
S=C(NCc1cccnc1)c1ccccc1	102
CCCCc1ccc(Nc2ncnc3c2cnn3-c2ccccc2)cc1	101

The results go on.
smiles	VACV E9 pol inh
O=C(CSC(F)(F)F)Nc1ccc(I)cc1	100
CSC(=S)N(C)/N=C/c1cc(Cl)cc(Cl)c1O	96
NC(=S)N1C(c2ccccc2)CCN1c1ccccc1 (stereo unspecified)	98
O=C(Cn1ncc2c1-c1ccccc1OC2)N1CCCCC1	99
Cn1cnnc1Sc1cc(C#N)c(C#N)cc1Sc1nncn1C	95
Cc1cc(C)c(NC(=O)COC(=O)c2ccco2)c(C)c1	102
CCn1c2ccccc2c2cc(C3C(C#N)=C(C)NC(C)=C3C#N)ccc21	84
Nc1ccccc1Nc1c(N)c(=O)oc2ccccc12	98
NC(=O)C1CCN(C(=O)/C=C/c2cccc(Br)c2)CC1	102
FC(F)(F)c1cc(/C=C\c2noc(-c3ccc(CN4CCCC4)cc3)n2)cc(C(F)(F)F)c1	93
Cc1nc2ccc(-n3ccc(=O)cc3)cc2s1	94
COc1ccccc1CNC(=O)CCS(=O)(=O)c1cccc2nonc12	104
Cc1cccc(N(C)S(=O)(=O)c2ccc3c(c2)n(C)c(=O)c(=O)n3C)c1	105
COCCn1c(=NC(=O)c2ccc(Br)s2)sc2cc(NC(C)=O)ccc21	113
Cc1nc2sccn2c(=O)c1S(=O)(=O)NC1CC1	96
CC1CCCCN1C(=O)c1cc2nc(-c3ccc(Cl)cc3)cc(C(F)(F)F)n2n1 (stereo unspecified)	100
O=C(NCc1cccc2ccccc12)c1ccc2c3c(cccc13)CC2	100
CN1CCC(N(C)C(=O)c2cc(-c3ccc(F)cc3)nc3ccccc23)CC1	98
CC(=O)Nc1cccc(NC(=O)CSc2ncnc3ccccc23)c1	98
CC(C(=O)NCc1cccs1)n1ncn2cccc2c1=O (stereo unspecified)	102

Overlap with the part before: 2 entries; new compounds follow.
smiles	VACV E9 pol inh
CC(=O)Nc1cccc(NC(=O)CSc2ncnc3ccccc23)c1	98
CC(C(=O)NCc1cccs1)n1ncn2cccc2c1=O (stereo unspecified)	102
CS(=O)(=N/C=C(\C#N)S(=O)(=O)c1ccc(C(F)(F)F)cn1)c1ccc(Cl)cc1 (stereo unspecified)	100
COc1ccc(CCn2c(=S)[nH]c3ccc(Cl)cc3c2=O)cc1OC	103
NCCCC[C@H](N[C@@H](CCc1ccccc1)C(=O)O)C(=O)N1CCC[C@H]1C(=O)O	100
N#Cc1c(OCC(F)(F)F)ccc(SCc2ccccc2)c1OCC(F)(F)F	101
Cc1ccc(-n2ncc(N(C)N3CC(C)(C)C3=O)c(Cl)c2=O)cc1	98
O=C(NCCc1ccccc1)c1cc(=O)c2ccccc2o1	108
CC(=O)n1c(C=Nc2ccccc2)c(O)c2ccccc21	99
O=C(CBr)c1cc(Cl)ccc1Cl	103
O=C(CNc1ccc(F)c(Cl)c1)Nc1ccc2c(c1)OCCO2	82
COc1cc(S(=O)(=O)N2CCN(c3ccccc3OC)CC2)c(C)cc1C	93
CCN(Cc1ccccc1)C(=O)c1sc2nc(C)cc(C)c2c1N	100
O=C(c1[nH]c2ccccc2c1-c1ccccc1)N1CCOCC1	106
COc1ccc(C(=O)CSc2nc3c([nH]2)c(=O)n(C)c(=O)n3C)cc1	100
CC(=O)OC1CCC([N+](C)(C)C)C(OC(C)=O)C1[N+](C)(C)C (stereo unspecified)	100
O=C1/C(=C/c2cccnc2)CC/C1=C\c1cccnc1	105
c1ccc(CNC2=NCCCCC2)cc1	93&103
CCc1ccc(C2C(C(=O)OC)=CNC=C2C(=O)OC)cc1	102
CCOc1ccc(-c2nc3ccccc3s2)cc1	106
Cc1cc2c(cc1S(=O)(=O)NCCN1CCN(c3ccccc3F)CC1)OCC(=O)N2	101
CCC1(CC)Cc2ccccc2C(=O)N1	108
Cc1cc(NC(=O)CSC2=NCCS2)no1	101
Cc1cc(C(=O)NN)c2cc(Br)ccc2n1	91
Cc1ccc(C(=O)NCC(=O)O)s1	97
Cc1ccc(OCc2ccccc2C(=O)Nc2nccs2)cc1	99
O=C(Nc1ccccc1N1CCCCC1)c1sc2ccccc2c1Cl	101
O=C(NCSc1nc2ccccc2s1)c1ccco1	100
CCN1C(=O)/C(=C\C=C2/Sc3ccc(Cl)cc3N2C)SC1=S	94
COc1ccc(CNC(=O)C2CC(=O)N=C(N)S2)cc1 (stereo unspecified)	96
Cc1cccc2sc(NC(=O)c3ccccc3)nc12	99
O=C(CSc1nc2c(c(=O)[nH]1)CCC2)N1CCCCCC1	98
CN(Cc1ccccc1)C(=O)CCn1c(=O)oc2ccccc21	93
Cc1cc(CO)cc(C)c1Br	106
CNc1c(NS(=O)(=O)c2ccc(Cl)cc2)c(=O)oc2ccccc12	106
O=C(c1cccc(Br)c1)N(C(=O)c1cccc(Br)c1)c1ncccn1	110
CCOC(=O)c1cnn2c(C(F)(F)F)cc(C)nc12	104

Some of the compounds tested; the hit share may differ from the screen's.
